# High-throughput results deposited in PubChem BioAssay by National Center for Advancing Translational Sciences (NCATS).
# StopGo FLuc – FMDV 2A StopGo reporter, firefly signal. HEK cells with a luciferase reporter of 2A StopGo recoding. actives 0.23% (n = 120,000). Potency, µM (titrated, usually from 57.5 µM), without a hit: at the top dose signal change, negative = less light; active = well fitted falling curve with a large enough effect; inconclusive = small, poorly fitted or top-dose-only effect; inactive = no such curve, though single readings can be large or run the other way; further: nearly all actives have a fitted effect of over 60% in size; overnight with compound
# StopGo RLuc – lowers the Renilla signal of an FMDV 2A StopGo reporter | HEK cells with a luciferase reporter of 2A StopGo recoding | Potency, µM (top dose mostly 57.5 µM), inactives show at the highest dose signal change, negative = less light | AID 1745857 | actives 0.32% (n = 120,000); active means well fitted falling curve with a large enough effect; inconclusive means small, poorly fitted or top-dose-only effect; inactive means no such curve, though single readings can be large or run the other way; further: nearly all actives have a fitted effect of over 55% in size; overnight with compound
# * = called active by the depositor; ? = inconclusive; & = joins results of further samples; [ ] = remark or other dose. On the % scale 0 is the no-effect control and ±100 the full control effect; potency means the concentration at half of the fitted maximal effect.
compound | StopGo FLuc | StopGo RLuc
Cc1cc(=O)[nH]c2nnc(SCC(=O)Nc3ccc(F)cc3F)n12 | -20% | -13%
O=S(=O)(NCc1ccc(N2CCCC2)nc1)c1ccc2c(c1)CCCC2 | -5% | 4%
CCc1ccc(-c2nc(SCC(=O)N3CCCC3c3ccc4c(c3)OCCCO4)n[nH]2)cc1 (stereo not given) | ? | 28µM*
N#Cc1nc(/C=C/c2ccc(F)cc2)oc1N1CCCCC1 | 79%&9%[activator] | -1%&-7%
CCOc1ccccc1NS(=O)(=O)c1c(C(=O)OC)sc2cccc(F)c12 | ? | 102%[activator]
CC(O)CNC(=O)c1ccc(-c2nn(C)c(=O)c3ccccc23)cc1 (stereo not given) | 24% | 21%
O=S(=O)(O)NCCCO | 18% | 9%
CC(Sc1nnc(-c2nn(Cc3ccccc3)c(=O)c3ccccc23)o1)C(=O)N1CCCC1 (stereo not given) | -6% | -10%
CCOc1ccc2c(=O)c(-c3ccc(OC)cc3)c(C(F)(F)F)oc2c1 | 3% | -16%
CCCCOc1cccc(NC(=O)CSc2nnc(C)s2)c1 | 55%[activator] | 14%
O=C(NCCc1c[nH]c2ccccc12)NC1CCCCC1 | 122%[activator] | 52%[activator]
Oc1ccc(-c2nc3ccccn3c2Nc2ccc3c(c2)OCCO3)cc1 | 67%[activator] | 35%[activator]
Cc1ccc(Oc2ccc(-c3ccc(Oc4ccc(C)c(C)c4)cc3)cc2)cc1C | -2% | -11%
Cc1ccc(CNC(=O)NCCNc2ncccn2)cc1 | ? | -8%
CCn1nc(C(=O)Nc2ncc(C)s2)c2ccccc2c1=O | 14% | 10%
Cc1ccc(NS(=O)(=O)c2c(C)[nH]c(C)c2C(=O)N2CCCCC2)c(C)c1 | 26% | 0%
COc1ccccc1N1CCN(C(c2ccc(Cl)cc2)c2nnc(-c3cccc(F)c3)o2)CC1 (stereo not given) | -2% | -7%
CCc1nc2ccc(C(=O)NCCc3ccc(OC)c(OC)c3)cc2nc1CC | -13% | -15%
CC(NC(=O)c1cc(=O)[nH]c2ccccc12)c1ccncc1 (stereo not given) | 9% | 3%
Nc1c(N(Cc2ccco2)C(=O)COc2ccc3ccccc3c2)c(=O)[nH]c(=O)n1Cc1ccccc1 | -5% | 6%
Cc1ccc2occ(CC(=O)Nc3nnc(C(C)C)s3)c2c1 | 20%&-7% | 5%&-4%
Cc1ccc(C)c(Cn2c(N3CCC(C(=O)N4CCCCC4)CC3)nc3ccccc32)c1 | -17% | -6%
CC(CC(=O)Nc1cccc(C(N)=O)c1)(C(=O)O)c1ccccc1 (stereo not given) | 16% | -1%
CCN(CC)CCNC(=O)C(C)c1nn(CC)c(=O)c2ccccc12 (stereo not given) | -16% | -14%
CCCn1c(C(O)(c2nc3ccccc3n2CCC)C(F)(F)F)nc2ccccc21 | 40%[activator] | 108%[activator]
COc1cccc(CNC(=O)c2ccc(S(=O)(=O)N3CCc4ccccc4C3)cc2)c1 | 8% | 15%
CCOC1CSc2sc(=S)sc2S1 (stereo not given) | -16% | -18%
COc1ccc(-n2ncc(C(=O)N3CCOCC3)c2C2CCN(C(=O)OC(C)(C)C)CC2)cc1 | -23% | -12%
COc1ccc(S(=O)(=O)c2cn(CC(=O)Nc3ccccc3)c3ccc(Cl)cc3c2=O)cc1 | -13% | 3%
O=C(CCC(=O)c1ccc(Cl)cc1)OC1CCCCC1=O (stereo not given) | 68%[activator] | 2%
CCNC(=O)NC(=O)COC(=O)c1cc(-c2ccco2)nc2ccccc12 | 0% | 21%
CC(C)CC(NC(N)=O)C(=O)NCCc1ccc(C(F)(F)F)cc1 (stereo not given) | 10% | 3%
CCCN(CCC)C(=O)C1CCCN(c2ncnc3onc(-c4ccc(F)cc4)c23)C1 (stereo not given) | -2% | 3%
Cc1oc2cc(OC(=O)c3ccc4c(c3)OCO4)ccc2c(=O)c1-c1ccccc1 | -1% | 1%
O=CN1CCN(C(C(=O)O)c2cn(CCC(=O)O)c3cc(Br)ccc23)CC1 (stereo not given) | -6% | -15%
CN(C(=O)Cn1nc(Cc2ccncc2)c2ccccc2c1=O)c1ccccc1F | 0% | 5%
COc1cccc(/C=C/c2nc(C#N)c(NC3CCCCC3)o2)c1 | 69%&48%[activator] | 6%&19%
Cc1cc(C)c2c(=O)nc(SCc3ccccc3C)n(C3CC3)c2n1 | -15% | 23%
Cc1ccc(C2c3[nH]c4ccccc4c3CCN2C(=O)CSCc2ccc(F)cc2)cc1 (stereo not given) | -23% | -10%
Cc1ccc(SCc2cc(=O)[nH]c(N3CCOCC3)n2)cc1 | 17% | 3%
Cc1ccc2c(CN(C)CCOc3ccccc3)cc(=O)oc2c1 | 6% | 1%
Cc1cc(C)c2c(=O)cc(C(=O)Nc3sc4c(c3C#N)CCCC4)oc2c1 | -8%&-10% | -9%&1%
CC1(C)CC(NC(=O)CCc2ccccc2)CC(C)(C)N1 | 0% | 8%
Cc1nc(-c2cccc(N3CC(C(=O)NC4CCCCCC4)CC3=O)c2)no1 (stereo not given) | 15% | 15%
CCN(CC)S(=O)(=O)c1ccc(NS(=O)(=O)c2cccc(C#N)c2)cc1 | -10% | 37%[activator]
O=C(CN1CCN(S(=O)(=O)c2cc(Cl)ccc2Cl)CC1)Nc1cccc(F)c1 | 19% | 16%
COCCNc1oc(-c2cccs2)nc1S(=O)(=O)c1ccc(C)cc1 | -8% | 205%[activator]
CC(C)c1ccc(C(=O)N2CCN(c3nc4ccccc4o3)CC2)cc1 | 9% | -2%

# Retrieved one by one from the list above:
compound | StopGo FLuc | StopGo RLuc
CC1(C)CC(NC(=O)CCc2ccccc2)CC(C)(C)N1 | 0% | 8%
Cc1ccc2c(CN(C)CCOc3ccccc3)cc(=O)oc2c1 | 6% | 1%
CC(C)c1ccc(C(=O)N2CCN(c3nc4ccccc4o3)CC2)cc1 | 9% | -2%
COCCNc1oc(-c2cccs2)nc1S(=O)(=O)c1ccc(C)cc1 | -8% | 205%[activator]
Cc1cc(C)c2c(=O)cc(C(=O)Nc3sc4c(c3C#N)CCCC4)oc2c1 | -8%&-10% | -9%&1%

# (further entries)
compound | StopGo FLuc | StopGo RLuc
Cc1ccc(N2CC(C(=O)NCc3nnnn3-c3ccc(C)c(C)c3)CC2=O)cc1 (stereo not given) | -12% | 2%
Cc1ccc(S(=O)(=O)NC(C)(C)C)cc1C(=O)NCc1coc(-c2cccs2)n1 | -3% | 43%[activator]
CCc1ccc(-c2nc(-c3nc(-c4ccc(C)cc4C)cs3)sc2C)cc1 | 1% | 11%
Cc1c(Cl)cccc1N1C(N)=C(C#N)C(c2cc(CN3CCOCC3)cs2)C2=C1CCCC2=O (stereo not given) | -10% | -13%
COc1ccc(C(=O)c2oc3ccccc3c2NC(=O)COc2c(C)cc(C)cc2C)cc1 | -16% | -8%
Cn1c(=O)c2[nH]c(N3CCNCC3)nc2n(C)c1=O | 2% | -7%
Cc1nn(CC(=O)NCc2cccc(F)c2)c(=O)c2c(C)n(-c3ccc(Cl)cc3)nc12 | -12% | -9%
COc1ccc(N(C)S(=O)(=O)c2ccc3c(c2)n(C)c(=O)c(=O)n3C)cc1 | -21% | -7%
Cc1ccsc1CN(CC1CCCO1)C(=O)COc1cc(C)c(Cl)c(C)c1 (stereo not given) | -9% | 55%[activator]
Cc1cc(SC(C(=O)O)c2ccccc2)ncn1 (stereo not given) | 0% | 9%
COc1cc(C2C3=C(CCCC3=O)Nc3[nH]n(-c4ccccc4)c(=O)c32)ccc1O (stereo not given) | 8% | 49%[activator]
COc1ccc(Cc2c(C)nn(-c3nc(C)c(C(=O)Nc4cccc(C(C)=O)c4)s3)c2C)cc1 | 10% | 7%
O=C(NC(=O)c1cccc(F)c1)Nc1ccc(-c2cc(C(F)(F)F)nn2-c2ccccc2)cc1 | 1% | -9%
CCc1cc2c(cc3c(=O)n(CC(=O)NCCc4ccc(OC)cc4OC)nc(CC)n32)s1 | 12% | -4%
COc1cc(NC(=O)Cn2nc3c(cc2=O)CC(C)CC3)cc(OC)c1OC (stereo not given) | -10% | -5%
C=C(C)COc1ccccc1N | 13% | 4%
Cc1ccc(CNC(=O)c2ccc(CSCc3cccc(C)c3)o2)cc1 | 0%&20% | 10%&2%
Cc1ccc(-c2cn3c(n2)sc2cc(C(=O)NCCC4=CCCCC4)ccc23)cc1 | 42%[activator] | -16%
CCc1c(C)nc2nncn2c1Nc1ccc(C)c(F)c1 | -19% | -2%
COc1ccc(NC(=O)c2ccc(O)c(Cl)c2)c(OC)c1 | 0% | 5%
CC(=O)Nc1ccc(Nc2nc(-c3ccc(NC(C)=O)cc3)cs2)cc1 | 207%[activator] | 91%[activator]
Cc1oc(-c2cccs2)nc1CC(=O)NCC(F)(F)F | -9% | -11%
Cc1ccc(Nc2nc(C)nc(N)c2S(=O)(=O)c2ccccc2)cc1 | 3% | 0%
COc1ccc(N(Cc2cccs2)S(=O)(=O)c2ccc3c(c2)oc(=O)n3C)cc1 | 24% | 231%[activator]
CCOc1ccc(NC(=O)COC(=O)c2nn(C)c(=O)c3ccccc23)cc1 | 0% | 8%
Fc1ccc(-c2nc(-c3ccccn3)no2)cc1 | 8% | 3%
CCOC(=O)C(=O)CCCCCCl | -17% | 4%
Cc1ccc(C)c(Oc2nc3c(c(=O)n(C)c(=O)n3C)n2Cc2ccccc2)c1 | -11% | 2%
CCOC(=O)c1ccc(NC(=O)c2c(-c3ccc(OC)cc3)oc3ccc(OC)cc23)cc1 | 8% | 3%
Nc1nccnc1C(=O)NCCc1ccccn1 | 135%[activator] | 6%
Cc1ccc2onc(CC(=O)N(C)c3ccccc3)c2c1 | 9% | 3%
O=C(O)COc1ccc(/C=C2/NC(=O)NC2=O)cc1Br | 3% | 14%
C=Cc1ccc(Cn2c(C(=O)O)c(CNCc3cccs3)c3ccc(C)cc32)cc1 | ? | 70%[activator]
CCS(=O)(=O)N1CCc2cc(C(=O)Nc3cccc(C(C)=O)c3)ccc21 | 61%[activator] | 9%
Cc1cc(C(F)(F)F)nc(Sc2nc(C)cc(C)c2C#N)n1 | -10% | -3%
Cn1c(=O)c2c(nc(Sc3nncn3Cc3ccccc3)n2C)n(C)c1=O | 4% | -6%
CC(C)Sc1ccc2nn(CC(=O)Nc3ccccc3F)c(=O)n2n1 | 3% | -7%
Cc1c2c(nc3ccccc13)-c1ccccc1CC2 | 179%[activator] | 10%
Cc1ccc(NC2=C(c3ccc(C(F)(F)F)cc3)C(=O)c3ccccc32)cc1C | 96%[activator] | -7%
CCN(C(=O)Cn1c(C(=O)OC)cc2sc(Cl)cc21)c1cccc(C)c1 | -13% | -18%
Cc1ccc(Nc2c(-c3ccccc3O)nc3cc(C)ccn23)cc1 | ? | -7%
Cc1ccc(-c2nc(-c3nc(-c4ccc(C)cc4C)cs3)sc2C)cc1 | 10% | 3%
CCCCn1c(=O)n(CC(=O)NCc2ccc(C)cc2)c(=O)c2c1ncn2Cc1ccco1 | -13% | -5%
COCCn1cnnc1SCc1ccc(F)cc1Cl | 14% | 8%
COc1ccc(-c2nc(SCC(=O)NCc3nc4ccccc4n3C)n3[nH]c(=O)cc3n2)cc1 | 0% | 11%
Cc1ccccc1C1CC(=O)Nc2ccc3ccccc3c21 (stereo not given) | 99%[activator] | 70%[activator]
CCOCc1cc(CN2CCN(c3cccc(Cl)c3)CC2)c(O)c2ncccc12 | -24% | 1%
CN(C)c1nc(N(C)C)nc(-n2cnc(SCc3ccccc3)n2)n1 | 12% | 16%
CC(NC(=O)CCc1ccsc1)C1CCCO1 (stereo not given) | 0% | 10%
CC(O)c1ccc(-c2ccc(CNCCc3ccccc3)o2)cc1 (stereo not given) | 9% | -8%
CC(=O)c1ccc(NC(=O)COc2ccccc2-c2nc(C)no2)cc1 | -7% | -15%
Cc1ccc2[nH]c(C(=O)NCc3ccco3)cc2c1 | 55%[activator] | -8%
COc1ccc(-n2c(SCC(N)=O)nc3c(oc4ccccc43)c2=O)cc1 | -13% | -6%
COc1ccc(Cl)cc1NC(=O)c1sc2nc(-c3ccc(OC)c(OC)c3)ccc2c1N | -16% | 25%
Cc1cc(C)cc(C(=O)N2CCN(Cc3nc(N)c4ccccc4n3)CC2)c1 | 3% | -2%
Cc1cc(C(=O)OCC(=O)N(C)Cc2ccc(F)cc2)c2ccccc2n1 | -18% | -15%

# The list continues.
compound | StopGo FLuc | StopGo RLuc
O=S(=O)(c1cccc2ccccc12)N1CCN(c2ccc(F)cc2)CC1 | 11% | 146%[activator]
Cc1nnc(N2CCC(C(=O)NC3CCC(C)CC3)CC2)c2nn(-c3ccc(Cl)cc3)c(C)c12 (stereo not given) | 8% | 7%
Cc1ccc(N=c2scc(-c3ccccc3)n2-c2cccc(C)c2)cc1 | 15% | 9%
COc1cc(C(=O)Nc2cccc(-c3nncn3C)c2)cc(OC)c1OC | 0% | 33%[activator]
C=C(C)Cn1c(SCC(=O)Nc2ccccc2)nc2c1c(=O)[nH]c(=O)n2C | -2% | -3%
CC(C)(C)c1ccc(C(=O)NCC(=O)OCc2cc(=O)n3nc(C4CC4)sc3n2)cc1 | 7%&-14% | 3%&8%
Cc1cccc(C(=O)N2CCc3cc(CNC(=O)CSc4ccccc4)ccc32)c1 | 22% | 34%
CCn1c(=O)c(=O)n(CC)c2cc(N3CCCCC3)c(NC(=O)c3cccc(OC)c3)cc21 | -12% | 57%[activator]
CCN1Cc2cccc(C(=O)Nc3ccc(F)cc3)c2C1=O | -8% | -15%
CCc1ccccc1NC(=O)CN(C)S(=O)(=O)c1cccc2nsnc12 | -15% | -11%
O=S(=O)(NCCc1csc2nc(-c3ccccc3)nn12)c1cccs1 | -12% | 153%[activator]
COc1ccc(-c2nc3cc(NC(=O)c4cc5ccccc5o4)ccc3o2)cc1 | 14% | 11%
